# High-throughput results from PubChem.
# Lassa entry inh – blocks Lassa virus binding to or entry into cells; Lassa virus pseudotype entry inhibition, cell reporter; control for the full effect not named in the record; Potency, µM (top dose mostly 37.9 µM), for inactives: at the highest dose activity change, negative = inhibition, usual class: inhibitors; 1.2% of 300,000 active; active means well fitted inhibition curve with a large enough effect; inconclusive means small, poorly fitted or top-dose-only effect, or effect the other way; inactive means flat fitted curve, though single readings scatter; tested in HEK293 cells; further: on the % scale 0 is the no-effect control and ±100 the full control effect; nearly all actives have a fitted effect of over 50% in size; luciferase read-out
# SARS PLP yeast – blocks SARS-CoV papain-like protease in a yeast assay. S. cerevisiae expressing SARS-CoV PLpro, growth rescue; control for the full effect not named in the record. Potency, µM (doses to about 32.9 µM), for the others: at the highest dose activity, positive = growth rescue. 0.19% of 330,000 active; active means well fitted rising curve with a large enough effect; inconclusive means small, poorly fitted or top-dose-only effect; inactive means no such curve, though single readings can be large or run the other way; further: 0% is about no effect; nearly all actives have a fitted effect of over 55% in size; growth read by luminescence after 48 h
# NS1 inh – influenza NS1 inhibition; S. cerevisiae slowed by influenza A NS1, growth recovery by OD600; Potency, µM (doses to about 46.1 µM), for inactives: at the highest dose activity, positive = more growth; 0.4% of 270,000 active; AID 2326; active means well fitted rising curve with a large enough effect; inconclusive means small, poorly fitted or top-dose-only effect; inactive means no such curve, though single readings can be large or run the other way; further: nearly all actives have a fitted effect of over 50% in size
#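 S. cerevisiae expressing influenza A NS1, grown in glucose, washed, then diluted 1:100 into pH 6.0 -URA galactose medium with 23 nl compound. Growth recovery read as OD600; NS1-free strain serves as control.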
# Cruzain Triton – blocks cruzain activity in presence of Triton detergent | AID 1478 | purified cruzain, Z-FR-AMC fluorescence, 0.01% Triton | 0.43% of 200,000 active | P25779 | Potency, µM, for the others: max response, negative = inhibition, usual class: inhibitors;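 further: plate controls were neutral wells for no effect and buffer without enzyme for full effect; nearly all actives have a fitted effect of over 40% in size; top concentration of the series not given in the record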
# Target sequence (P25779 123-467 limits assumed): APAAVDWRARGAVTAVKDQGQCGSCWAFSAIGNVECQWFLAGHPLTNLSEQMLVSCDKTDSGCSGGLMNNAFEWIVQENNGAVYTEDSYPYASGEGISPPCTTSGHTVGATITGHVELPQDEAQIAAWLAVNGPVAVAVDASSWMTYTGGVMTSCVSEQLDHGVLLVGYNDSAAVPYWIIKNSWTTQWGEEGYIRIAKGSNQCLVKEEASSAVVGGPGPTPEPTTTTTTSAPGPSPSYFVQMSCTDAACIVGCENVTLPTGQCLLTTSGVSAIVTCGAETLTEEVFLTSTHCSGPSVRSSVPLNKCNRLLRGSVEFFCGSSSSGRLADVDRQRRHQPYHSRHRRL
#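 15 min RT preincubation of 1.5 nM cruzain with compound, then 2 uM Z-FR-AMC added; kinetic AMC fluorescence, 60 s delta. Triton X-100 0.01%, pH 5.5.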
# Cruzain inh noDet – blocks cruzain activity in detergent-free assay; purified cruzain, Z-FR-AMC fluorescence, no detergent; 2.3% of 200,000 active; AID 1476; Potency, µM, inactives show max response, negative = inhibition, actives largely listed as inhibitors;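 further: plate controls were enzyme without inhibitor for no effect and buffer without enzyme for full effect; nearly all actives have a fitted effect of over 40% in size; top concentration of the series not given in the record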
#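 Purified cruzain at 1.5 nM, pre-incubated 15 min with compound at room temperature in 100 mM sodium acetate pH 5.5, 5 mM DTT, 0.00005% Triton X-100. Reaction started with 2 uM Z-FR-AMC; AMC fluorescence increase over 60 s gives rate.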
# RE007 growth inh – less growth of the S. pombe RE007 Vpr strain; Potency, µM (titrated, usually from 92.2 µM), without a hit: at the highest dose activity change, negative = less growth; AID 651644; 0.21% of 360,000 active; S. pombe RE007 Vpr strain, BacTiter-Glo ATP luminescence, 24 h; control for the full effect not named in the record; active = well fitted falling curve with a large enough effect; inconclusive = small, poorly fitted or top-dose-only effect; inactive = no such curve, though single readings can be large or run the other way;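 further: on the % scale 0 is the no-effect control and ±100 the full control effect; nearly all actives have a fitted effect of over 50% in size; the assay follows cell death caused by Vpr and the record does not say whether a fall means rescue or toxicity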
#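 Fission yeast strain RE007, carrying one chromosomally integrated HIV-1 vpr copy, was seeded at OD 0.01 in PMG+AL medium with 23 nL pinned compound. After 24 h at 30 °C and 99% humidity, viability was read by BacTiter-Glo luminescence.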
# Marburg entry inh – blocks Marburg virus binding to or entry into cells | Marburg virus pseudotyped entry inhibition, cell reporter; control for the full effect not named in the record; about a third of the inactives were read at about 46 µM | Potency, µM (titrated, usually from 37.8 µM), for inactives: at the top dose activity change, negative = inhibition, most hits filed as inhibitors | 1.8% of 300,000 active | AID 540276; active = well fitted inhibition curve with a large enough effect; inconclusive = small, poorly fitted or top-dose-only effect, or effect the other way; inactive = flat fitted curve, though single readings scatter; tested in HEK293 cells; about a fifth of its hits are not listed in these tables; further: on the % scale 0 is the no-effect control and ±100 the full control effect; luciferase read-out
# 2A StopGo – FMDV 2A StopGo reporter, luciferase signal; 1.2% of 410,000 active; human cells with a luciferase reporter of 2A StopGo recoding; control for the full effect not named in the record; Potency, µM (top dose mostly 57.9 µM), for inactives: at the highest dose signal change, negative = less light; active = well fitted falling curve with a large enough effect; inconclusive = small, poorly fitted or top-dose-only effect; inactive = no such curve, though single readings can be large or run the other way; tested in HEK293T cells; further: on the % scale 0 is the no-effect control and ±100 the full control effect; nearly all actives have a fitted effect of over 45% in size; luciferase light after 4 h
# Active calls of the source: *; u = inconclusive; x = not tested or not shown; & = joins results of further samples; [ ] = another dose, or the depositor's remark. Unless noted, the call rests on the fitted dose curve; in most records, active means well fitted curve in the direction sought with a large enough effect; inconclusive means small, poorly fitted or top-dose-only effect, or another doubt; inactive means no such curve, though single readings can be large; an effect the other way counts as inactive or inconclusive. Potency means the concentration at half of the fitted maximal effect.
SMILES,Lassa entry inh,SARS PLP yeast,NS1 inh,Cruzain Triton,Cruzain inh noDet,RE007 growth inh,Marburg entry inh,2A StopGo
CCCCn1nnnc1NCc1ccc(OC)c(OC)c1,9%,5%,2%,0.0%,-7%,25%,2%,-16%
CN(C)S(=O)(=O)c1cc(NC(=O)CN2CCN(c3ccc(O)cc3)CC2)ccc1Cl,u,1%,x,x,x,2%,u,-8%
c1ccc(-n2cc(CN3CCCC3)c(-c3ccc4c(c3)OCO4)n2)cc1,u,-1%,0%,x,x,-15%,u,-23%
O=C(CCOc1ccccc1)Nc1ccnn1C1CCN(Cc2ccc(CO)o2)CC1,8%,3%,1%,x,x,-8%,12%,1%
COc1ccc(/C=C/C(=O)NCC(c2ccc(F)cc2)N2CCOCC2)cc1OC (stereo not drawn),x,6%,-30%,x,x,4%,x,-7%
COc1ccc(-n2nnnc2C2CCN(S(=O)(=O)c3ccc(NC(C)=O)cc3)CC2)cc1,-5%[46.1 µM],x,x,-2.2%,u,x,-26%[46.1 µM],u
c1ccc(CSc2nnnn2-c2cccc3ccccc23)nc1,-4%,7%,-48%,-4.2%,-13%,-16%,5%,0%
CCC(C)NC(=O)NCc1ccccc1F (stereo not drawn),-2%,-2%,-3%,x,x,0%,28%[46.1 µM],17%
O=C(Nc1cccc2cccnc12)c1ccc(-c2cccc(Cl)c2)o1,-1%[46.1 µM],x,x,-1.3%,-22%,x,0%[46.1 µM],-6%
Cc1nnc(SCC(=O)NCc2cccc(F)c2)c2nn(-c3ccccc3)c(C)c12,u,x,x,-8.2%,-3%,x,x,u
CCOC(=O)C1(Cc2ccccc2C(F)(F)F)CCN(C2CCCC2)CC1,u,0%,1%,x,x,0%,7.9µM*,-13%
Cc1ccc(C(=O)COC(=O)CCc2ccc(S(=O)(=O)N3CCCCC3)cc2)cc1,1%,u,4%,-3.3%,-3%,-6%,1%,-15%
CC(=N/O)/C(C)=N\NC(=O)c1ccccn1,23%[46.1 µM],-6%,x,x,x,-2%,-7%[46.1 µM],13%
Cc1cccc(C)c1NC(=O)CSc1nnc(NC(=O)CN2CCOCC2)s1,6%,-1%,-8%,0.2%,-14%,-11%,-1%[46.1 µM],10%
COc1cccc(CN2CC(C(=O)NCCN3CCOC3=O)CCC2=O)c1 (stereo not drawn),x,1%,-2%,x,x,-4%,x,-4%
CC(C)NC(=O)c1cccc(NC(=O)CC2SC(N3CCCCC3)=NC2=O)c1 (stereo not drawn),-3%,0%,x,x,x,23%,u,-8%
CCCNC(=S)N1CCC(NC(=O)C23CC4CC(CC(C4)C2)C3)CC1,-16%,4%,11%,0.4%,7%,-7%,u,0%
COc1ccc([N+](=O)[O-])cc1NC(=O)CSCc1ccccc1,-18%,-26%,-10%,-6.9%,-3%,0%,-16%,u
COc1cc(Cl)c(NC(=O)CN2C(=O)c3cccnc3Sc3ccccc32)c(OC)c1,0%[46.1 µM],x,x,-3.5%,-2%,x,-3%[46.1 µM],-2%
Cc1ccccc1OCc1csc(N)n1,x,-17%,7%,x,x,u,x,21%
COc1cccc(N2C(=O)C(c3ccccc3)=C(c3nc4ccccc4s3)C2NC(C)=O)c1 (stereo not drawn),-12%,13%,4%,-0.8%,17%,-10%,-18%,-26%
CSc1ccc(CNCCN2CCOCC2)cc1,x,-1%,0%,x,x,0%,x,-12%
COCCNc1ccc(-c2nn(C)c(=O)c3ccccc23)cc1[N+](=O)[O-],x,-1%,2%,x,x,18%,x,-24%
Cn1cc(/C=C(\C(=O)O)C(C(=O)O)=C2CCCCC2)c2ccccc21,29%,-1%,8%,x,x,29%,14%[46.1 µM],-3%
O=C(N/N=C/c1ccccc1O)C(=O)Nc1ccccn1,-21%,0%,x,x,x,-13%,-27%,40%[activator]
CN(C)CCCNc1ncnc2c1cnn2-c1ccccc1,x,1%,-5%,-1.6%,8%,-1%,x,15%
O=C(CSc1nnc(-c2ccco2)n1Cc1ccccc1)NCc1ccccc1,1%,-9%,-3%,-3.1%,2%,2%,13%[46.1 µM],-4%
CCCCCCNC(=O)Nc1ccccc1,10%,-4%,-95%,0.7%,7%,16%,-16%,0%
CC(=O)c1cccc(NC(=S)NC(=O)c2ccc(Cl)cc2)c1,-3%,12%,7%,-3.7%,-8%,6%,u,53%[activator]
O=C(CCS(=O)(=O)c1ccccc1)Nc1ccc(Cl)cn1,2%,2%,-3%,x,x,13%,9%[46.1 µM],20%
O=c1c2ccccc2nnn1CSc1nc2cc(Cl)ccc2c(=O)n1Cc1ccco1,-2%,x,-15%,x,x,-34%[3.69 µM],6%&1%,15%
O=S(=O)(CCN1CCOCC1)c1ccc(OC(F)(F)F)cc1,x,-1%,-4%,x,x,-3%,x,-5%
NC(N)=Nc1nc(-c2ccccc2)c2cc(Cl)ccc2n1,x,5%,-2%,x,x,9%,x,u
Cc1ccc(C(=O)NCC(c2cccs2)S(=O)(=O)c2cccs2)cc1 (stereo not drawn),-23%[46.1 µM],x,x,-2.3%,4%,x,x,u
COc1ccc(C)cc1NC(=O)CCC(=O)Nc1nnc(C2CCCCC2)s1,u,-2%,-6%,x,x,12%,22%[46.1 µM],15%
CNC(=S)NNc1nc(N2CCOCC2)nc(N2CCOCC2)n1,0%[46.1 µM],1%,5%,x,x,23%,-11%[46.1 µM],-8%
Cc1nc2c(c(C)c1CCC(=O)NCc1ccc(Cl)cc1)c(=O)n(C)c(=O)n2C,u,x,x,2.5%,6%,x,9%[46.1 µM],-8%
CCC(Sc1nc2c(sc3ccccc32)c(=O)n1CCCC(=O)NC1CCCC1)C(=O)Nc1cccc(OC)c1 (stereo not drawn),-3%[46.1 µM],x,x,3.8%,7%,x,-2%[46.1 µM],8%
O=C(Nc1ccccc1Cl)NC1CCCCCCC1,15%[46.1 µM],-4%,-4%,x,x,11%,17%[46.1 µM],-12%
CCOc1ccc(-n2ccnc(SCC(=O)Nc3cccc(OC)c3)c2=O)cc1,-11%,3%,x,x,x,45%,u,u
NC(=O)c1cc2ccc(O)cc2oc1=Nc1ccccc1,u,-11%,-101%,-11%,2%,-21%,-3%,4%
COc1ccc2c(c1)CC(C(=O)NCCCN1CCN(c3ccc(F)cc3)CC1)CO2 (stereo not drawn),-8%[46.1 µM],x,x,-1.2%,-8%,x,x,-18%
CC(=O)c1ccc(OCc2cc(C(=O)NCCN3CCCC(O)C3)no2)cc1 (stereo not drawn),x,-2%,-1%,x,x,-8%,x,-9%
O=C1CC(c2ccccc2)CC(O)=C1C=NCc1ccc(Cl)cc1 (stereo not drawn),20%,1%,3%,-0.7%,-3%,-9%,-15%,x
O=C(N/N=C/c1c(O)ccc2ccccc12)c1ccc[n+](CCO)c1,-20%[46.1 µM],0.89µM*,-30%,x,x,-13%,-35%[46.1 µM],-3%
CCOc1ccccc1C1CC(=O)Nc2cc(OC)c(OC)cc21 (stereo not drawn),-23%,-3%,18%,x,x,-13%,-6%,1%
O=C(N/N=C/c1ccc([N+](=O)[O-])o1)c1sc2ccccc2c1Cl,x,-21%,-42%,x,x,-19%,x,u
O=C(Nc1ccccc1F)c1ccc(S(=O)(=O)NCC2CCCO2)cc1 (stereo not drawn),u,1%,-5%,4.4%,4%,0%,0%,x
CCC1CN(C(=O)N2CCC(C(=O)NCc3ccc(C)o3)CC2)c2ccccc2O1 (stereo not drawn),9%[46.1 µM],2%,3%,-2.1%,8%,8%,x,u
COc1ccc(/C=C(\C#N)C(=O)NCc2cccnc2)cc1OC,-7%[46.1 µM],0%,4%,x,x,-5%,-2%[46.1 µM],-17%
COc1ccc(NC(=O)COC(=O)C2CCCCC2)c([N+](=O)[O-])c1,u,-14%,-15%,-16%,0%,3%,9%,6%
Cc1ccnc(NS(=O)(=O)c2ccccc2)n1,23%,-2%,4%,-0.7%,4%,-8%,u,x
CC(C)[C@H]1COCCS(=O)(=O)N1Cc1ccccc1-c1cccc2c1oc1ccccc12,x,-28%,x,x,x,1%,u,u
CC(C)C(C(=O)N1CCN(Cc2ccccc2)CC1)c1ccccc1 (stereo not drawn),-4%,-3%,4%,x,x,-10%,-17%,u
Cc1ccccc1NC(=O)CCc1nnc2ccc(N3CCC4(CC3)OCCO4)nn12,x,1%,6%,x,x,-10%,x,-1%
Cc1cccc(NC(=S)NNc2ncc(C(F)(F)F)cc2Cl)c1,18µM*,u,8%,-4.6%,1%,6%,u,u
CCn1cc(Br)c(C(=O)N2CCN(c3ccccc3)CC2)n1,0%,x,-1%,5.0%,-2%,-2%,6%,x
CCOc1ccc(N2CC(C(=O)N3CCCC3)CC2=O)cc1 (stereo not drawn),6%[46.1 µM],-9%,-4%,x,x,9%,u,38%[activator]
COCC(=O)Nc1ccc2nc3n(c(=O)c2c1)CCCCC3,x,-1%,u,x,x,18%,x,12%
CC(C)N1C(=O)/C(=C\c2nc3ccccc3c(=O)n2-c2ccccc2)c2ccccc21,u,5%,-8%,-3.8%,u,-9%,u,18µM*

# Next records follow:
SMILES,Lassa entry inh,SARS PLP yeast,NS1 inh,Cruzain Triton,Cruzain inh noDet,RE007 growth inh,Marburg entry inh,2A StopGo
Cc1nc2ccc(NC(=O)c3cccc(S(=O)(=O)N(C)c4ccccc4)c3)cc2s1,u,4%,4%,-3.6%,u,-14%,18µM*,25µM*
CC(C)c1ccc(-n2c(O)c(C=NCCN3CCNCC3)c(=O)[nH]c2=S)cc1,x,1%,1%,x,x,2%,x,1%
COc1ccc(/C=N\NC(=O)c2cccc(F)c2)cc1COc1ccccc1,-16%,x,x,x,x,-3%,u,0%
O=C(NCCc1c[nH]c2ccccc12)c1ccc(Cl)cc1,x,-11%,-79%,x,x,-16%,x,70%[activator]
CCCCCOc1ccc(NC2=CC(=O)CCC2)cc1,u,-4%,0%,x,x,4%,2%,-6%
Cc1ccc2nsnc2c1S(=O)(=O)Nc1cccc2nsnc12,4%,1%,6%,1.3%,-9%,-3%,0%,37%[activator]
Cc1ccc(S(=O)(=O)N2CCCCC2)cc1NC(=O)COc1ccccc1,-6%[46.1 µM],-6%,x,x,x,-2%,u,-5%
COc1ccc(N2CCN(c3nc4ccc(C)cc4n4nnnc34)CC2)cc1,13%[46.1 µM],x,x,-0.7%,-9%,x,x,-2%
